p53 PUMA act – restores mutant p53 pathway signaling in SW480 cells. 1.5% of 28,000 active. activation, % at 9.98 µM. SW480 PUMA-promoter luciferase, p53 mutant reactivation; in the data active = activation above about 52%
Starred values were filed as active, the others as inactive.

compound	p53 PUMA act
COc1cccc(C(=O)Nc2ccc(NC(=O)C3C4C=CC(C4)C3C(=O)O)cc2)c1 (configuration not stated)	16
S=C(NC1CCCCC1)N1CCC(C2C=NC=N2)CC1 (configuration not stated)	28
c1ccc(CCc2nn3c(Cn4cnc5ccccc54)nnc3s2)cc1	1
Cn1c(NCc2ccco2)nc2c1c(=O)n(Cc1ccc(Br)cc1)c(=O)n2C	-12
C[C@@H]1CN([C@H](C)CO)C(=O)Cc2cc(NC(=O)Nc3ccccc3)ccc2O[C@H]1CN(C)Cc1ccc2c(c1)OCO2	6
COc1ccc(F)cc1S(=O)(=O)n1cnc2ccccc21	-8
Nc1nc(SCC(=O)NCC2CCCO2)n[nH]1 (configuration not stated)	-14
COc1cccc(C(=O)Nc2cccc(OCC(=O)c3ccccc3)c2)c1	17
COc1cc(O)cc(O)c1C(=O)/C=C/c1ccccc1	-24
CCOC(=O)c1cnc2c(C)c(Cl)ccc2c1NCCCN1CCOCC1	42
COc1cc([C@@H]2c3cc4c(cc3C(O[C@@H]3O[C@@H]5CO[C@@H](c6cccs6)OC5[C@H](O)[C@H]3O)C3COC(=O)[C@@H]32)OCO4)cc(OC)c1O (some centres not stated)	4
Cc1c(Nc2ncnc3c2cnn3-c2ccccc2)c(=O)n(-c2ccccc2)n1C	-7
CCNc1nc(NCc2ccccc2)nc(Oc2ccc(=O)[nH]n2)n1	-10
COC(=O)c1ccccc1NC(=O)c1ccc(NC(=O)C2CCCO2)cc1 (configuration not stated)	12
Cc1cc(C)cc(N(CC(=O)Nc2c(C)n(C)n(-c3ccccc3)c2=O)S(C)(=O)=O)c1	10
COc1ccc(Nc2nc(N)nc(CSc3nccc(C)n3)n2)cc1	19
CC(=O)N=c1sc(S(N)(=O)=O)nn1C	10
COC(=O)[C@H](c1ccccc1Cl)N1CCc2sccc2C1	3
CC1=CCC(C(=O)O)C(C(=O)Nc2cccnc2)C1 (configuration not stated)	10
COc1ccc([N+](=O)[O-])cc1NC(=O)CN(C)S(=O)(=O)c1ccccc1	1
C[C@H]1CN([C@@H](C)CO)C(=O)c2cc(NC(=O)Cn3cnnn3)ccc2O[C@H]1CN(C)Cc1ccc(Cl)c(Cl)c1	-4
Cc1ccc2c(c1)nc(NCCCO)n2C	12
COC(=O)c1ccccc1NC(=O)CNC(=O)c1ccc(OC)c(OC)c1	10
COc1ccc(-c2cnc3c(-c4ccsc4)cnn3c2)cc1	-52
Cn1c(SCc2nc(-c3ccc(Br)cc3)no2)nnc1-c1ccco1	-4
Cc1ccnc(NS(=O)(=O)c2ccc(NC(=O)c3oc4ccccc4c3C)cc2)n1	5
Cc1noc(C)c1NC(=O)N(C)C[C@@H]1Oc2ccc(NS(=O)(=O)c3cccs3)cc2C(=O)N([C@@H](C)CO)C[C@@H]1C	-2

For convenience, some entries already given.
compound	p53 PUMA act
Cc1ccnc(NS(=O)(=O)c2ccc(NC(=O)c3oc4ccccc4c3C)cc2)n1	5
Cc1noc(C)c1NC(=O)N(C)C[C@@H]1Oc2ccc(NS(=O)(=O)c3cccs3)cc2C(=O)N([C@@H](C)CO)C[C@@H]1C	-2

Shown with each value named: four of the compounds above.
structure: Cc1c(Nc2ncnc3c2cnn3-c2ccccc2)c(=O)n(-c2ccccc2)n1C
  p53 PUMA act: -7
structure: CC(=O)N=c1sc(S(N)(=O)=O)nn1C
  p53 PUMA act: 10
structure: Cc1ccnc(NS(=O)(=O)c2ccc(NC(=O)c3oc4ccccc4c3C)cc2)n1
  p53 PUMA act: 5
structure: Cc1ccc2c(c1)nc(NCCCO)n2C
  p53 PUMA act: 12

Quoted from the listing:
Cc1noc(C)c1NC(=O)N(C)C[C@@H]1Oc2ccc(NS(=O)(=O)c3cccs3)cc2C(=O)N([C@@H](C)CO)C[C@@H]1C – p53 PUMA act: -2
COc1ccc(F)cc1S(=O)(=O)n1cnc2ccccc21 – p53 PUMA act: -8

Screening data deposited in PubChem by Broad Institute.

An excerpt; most or all hits stand in other tables.
